Vif A3G = inhibitors of Vif binding to APOBEC3G peptide, primary screen, biochemical, TR-FRET, GST-Vif 1-94, biotin-A3G peptide, dose response retest (AID 1117319); inhibition, %; hits with a dose series show IC50 in µM; TR-FRET GST-Vif / biotin-A3G peptide binding; higher % means a stronger effect; test concentration not given here; strong numbers were not always called active; 0.57% of 260,000 active;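 active = above the screen mean plus three standard deviations and confirmed in dose response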;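 note: Vif residues 1-94 fused to GST binding biotinylated APOBEC3G peptide 110-148; 0% = full assay without inhibitor and 100% = GST in place of GST-Vif; retest series ran down from 100 µM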
ALR inh = human ALR oxidase inhibition via reduced H2O2. P55789. purified ALR, DTT oxidation, H2O2 HRP-luminol luminescence. inhibition, % (no concentration beside the values). 3.8% of 290,000 active. AID 485317;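 active = mean and each replicate at 75% or more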;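 note: stock transfer was 7.5 nL into about 7.5 µL; 0% = neutral wells and 100% = wells with inactivated enzyme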
Target sequence (P55789 whole entry, looked up): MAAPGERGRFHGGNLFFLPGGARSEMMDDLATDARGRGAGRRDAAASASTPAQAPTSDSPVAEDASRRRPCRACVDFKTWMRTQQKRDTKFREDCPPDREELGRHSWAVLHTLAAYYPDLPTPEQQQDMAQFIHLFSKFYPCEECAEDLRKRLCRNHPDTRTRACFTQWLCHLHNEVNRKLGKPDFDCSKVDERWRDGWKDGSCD
FGF22 binding = shifts melting point of recombinant human FGF22 | Q9HCT0 | recombinant FGF22 thermal shift, SYPRO orange fluorescence; percent of sucrose octasulfate shift, DMSO zero | calls only at 9.99 µM | 1.5% of 340,000 active | AID 651658;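 active = melting point raised past a set limit in the mean and every replicate; three in four hits are not shown here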
Target sequence (Q9HCT0 whole entry, looked up): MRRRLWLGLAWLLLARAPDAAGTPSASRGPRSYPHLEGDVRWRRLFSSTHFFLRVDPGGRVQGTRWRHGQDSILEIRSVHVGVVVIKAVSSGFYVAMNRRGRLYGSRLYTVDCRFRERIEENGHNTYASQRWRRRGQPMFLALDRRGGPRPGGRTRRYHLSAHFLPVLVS
HNF4A DNA FP = change in binding of human HNF4 alpha to DNA; activity change, % at 10 µM; HNF4a-FITC DNA binding, fluorescence polarization, 1 h; 0.3% of 360,000 active; AID 1224865; in the data active = activity change above about 30%, passing the limit was not always enough;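 note: controls were the assay level and a saturating level of protein; the project sought stronger binding though the title names inhibitors; some compounds called inactive have numbers as strong as hits; positive values seem to mean higher polarization but the record does not say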
Ecoli growth = inhibitors of Escherichia coli growth; 0.21% of 330,000 active; OD600 absorbance (test concentration not listed); OD600, 23 h; active compounds read low;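 active = OD600 absorbance below the run mean of sample wells minus 3.6 SD, in any replicate, cut at about 0.56 in these data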;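 note: stock transfer was 300 nL into about 60 µL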
AF4-AF9 inh = inhibitors of human MLL-AF4/AF9 interaction | AlphaScreen, biotin-AF4 peptide binding to FLAG-AF9 | inhibition, % at 10 µM | 0.47% of 350,000 active | AID 651704;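 active = every replicate reaching a set inhibition limit, whatever the replicate mean, cut at about 25% in these data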;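 note: 0% = plate neutral control median and 100% = total signal loss; the record names both 10 and 1 µM as test concentration; the first replicate is given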
Target sequence (P42568 whole entry, looked up): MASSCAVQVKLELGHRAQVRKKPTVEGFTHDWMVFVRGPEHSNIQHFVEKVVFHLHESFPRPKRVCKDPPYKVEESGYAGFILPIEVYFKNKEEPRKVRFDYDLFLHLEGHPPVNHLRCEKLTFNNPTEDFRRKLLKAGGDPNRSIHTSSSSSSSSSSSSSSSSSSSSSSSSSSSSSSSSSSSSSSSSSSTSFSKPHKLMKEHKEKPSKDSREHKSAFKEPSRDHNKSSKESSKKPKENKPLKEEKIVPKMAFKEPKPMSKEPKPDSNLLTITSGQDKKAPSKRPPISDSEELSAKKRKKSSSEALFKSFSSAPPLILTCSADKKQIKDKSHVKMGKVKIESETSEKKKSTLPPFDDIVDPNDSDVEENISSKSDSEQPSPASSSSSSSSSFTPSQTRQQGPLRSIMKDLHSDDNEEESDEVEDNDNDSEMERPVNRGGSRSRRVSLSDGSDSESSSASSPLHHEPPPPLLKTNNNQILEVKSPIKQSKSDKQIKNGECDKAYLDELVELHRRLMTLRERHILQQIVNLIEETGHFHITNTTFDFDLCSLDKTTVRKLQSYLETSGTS
rRNA inh HTS = selective bacterial rRNA inhibition in E. coli | E. coli WT GFP vs humanized-ribosome RFP mutants, fluorescence, 24 h; active compounds read low; DMSO median 0, no signal -100 | GFP signal change (wild-type ribosome), % (concentration not given with the values) | 1.6% of 350,000 active | AID 720706;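 active = significant combined selectivity score with lowered wild-type GFP, culture density cut under 30%, mutant RFP and density less affected; inactive = any of these conditions unmet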; note: one replicate is shown; some compounds called inactive have numbers as strong as hits
rRNA inh HTS OD600 = second read-out of rRNA inh HTS, no call of its own (marks repeat the call); OD600 change, %; measured here: OD600 growth;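 optical density of the mix in the first replicate; 0 = DMSO median and -100 = no signal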
rRNA inh HTS RFP = second read-out of rRNA inh HTS, no call of its own (marks repeat the call); RFP signal change, %; measured here: RFP humanized mutant strains;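 first replicate; 0 = DMSO median and -100 = no signal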
* marks the source's active call; other numbers are inactive results; i = inactive; · = not tested or not shown; & = joins results of further samples. These rows are one share of the data; rates above refer to the full screens.

Molecule,Vif A3G,ALR inh,FGF22 binding,HNF4A DNA FP,Ecoli growth,AF4-AF9 inh,rRNA inh HTS,rRNA inh HTS OD600,rRNA inh HTS RFP
C[C@@H]1CN([C@H](C)CO)C(=O)c2cc(NS(=O)(=O)c3cn(C)cn3)ccc2O[C@H]1CN(C)C(=O)NC1CCCCC1,·,·,i,·,·,-1.1,5,6,-0.3
O=C(CN1C(=O)NC2(CCCC2)C1=O)N1CCN(S(=O)(=O)c2ccc(Cl)c(C(F)(F)F)c2)CC1,1%,-1,i,0.2,0.68,-2.1,5,5,0.5
CSc1ccccc1NC(=O)CSc1n[nH]c(C)c1[N+](=O)[O-],-5%,-6,i,-0.3,0.65,-4.9,-30*,-20*,-1.2*
COc1cc(C(=S)N2CCOCC2)cc(OC)c1OS(=O)(=O)c1ccc(Cl)cc1,-2%,-3,i,-3.9,0.65,0.0,-7,-9,-1.3
COc1ccc(C)cc1NC(=O)CN1CCN(c2ccc(F)cc2)CC1,2%,17,·,0.8,0.7,·,·,·,·
CCN(CC)CCCn1c(C)cc2c(c1=O)C(c1cccc(Cl)c1)C(C#N)=C(N)O2 (stereo not drawn),-1%&16%,·,·,-0.8,0.78,·,·,·,·
COc1cc(/C=C/C(=O)OCC(=O)Nc2cc(S(=O)(=O)N(C)C)ccc2Cl)ccc1O,12%,-3,i,5.2,0.68,-0.5,-8,-9,1.7
O=S(=O)(Nc1cccnc1)c1cccnc1,7%,·,·,3.8,0.69,0.9,3,3,0.4
COc1cccc(NC(=O)C2C3C=CC4(O3)C2C(=O)N(CCCN2CCCC(C)C2)C4C(=O)NC2CCCCC2C)c1 (stereo not drawn),·,-3,i,0.5,0.71,1.6,4,7,0.5
CC(=O)N1CCN(C(=S)Nc2ccc(Oc3ccccc3)cc2)CC1,6%,3,i,1.3,0.69,3.7,-26,-30,-6.0
CC1CCCC(C)N1C(=O)c1ccccc1 (stereo not drawn),·,·,i,·,·,-1.6,0,3,0.5
Cc1nnc(N/N=C/c2ccc(-c3ccccc3F)o2)n1N,·,15,i,9.2,·,4.1,-20,-16,-5.8
C[C@@H]1CN([C@H](C)CO)C(=O)c2cccc(NC(=O)c3nc4ccccc4s3)c2O[C@@H]1CN(C)Cc1ccc(Cl)c(Cl)c1,·,·,i,·,·,3.9,0,11,-2.0
CCc1ccc(NC(=O)Nc2cnccn2)cc1,-7%,-4,i,-4.2,0.68,-5.4,-6,3,-1.4
O=C(NC(=S)NCc1cccnc1)c1ccc([N+](=O)[O-])cc1,-1%,6,i,3.3,0.67,-6.6,2,3,7.1
COc1ccc(N(C(=O)c2snc(C(N)=O)c2N)C(C(=O)NC2CCCC2)c2cc(OC)ccc2OC)c(OC)c1 (stereo not drawn),·,-5,i,1.4,0.69,0.9,4,4,2.1
COc1ccc(OC)c(NC(=O)CCn2c(=S)[nH]c3ccccc3c2=O)c1,-5%,-5,i,1.2,0.67,-1.8,8,4,-1.7
CCOc1ccc(CN(C)CC(=O)Nc2ccc([N+](=O)[O-])cc2Cl)cc1,·,-4,·,2.0,0.7,·,·,·,·
CCC(CC)NC(=O)COC(=O)c1cc(Br)ccc1Cl,·,-4,i,0.6,0.66,0.7,-4,-2,-11
COC(=O)CC1C(=O)NCCN1C(=S)Nc1ccccc1 (stereo not drawn),-5%,-3,i,-6.5,0.69,-11,18,16,0.5
COCCCN(C(=O)c1cc(-c2ccco2)nc2ccccc12)c1c(N)n(Cc2ccccc2)c(=O)[nH]c1=O,31%,-5,i,-7.3,0.58,-11,-1,7,6.3
Cc1cccc(OCCN2C(=O)C(=O)c3cccc(C)c32)c1,·,-4,·,-1.1,0.7,·,·,·,·
C[C@@H]1CN([C@H](C)CO)C(=O)c2cc(NS(=O)(=O)c3ccc(Cl)cc3)ccc2O[C@H]1CN(C)C(=O)Nc1ccccc1,·,·,i,·,·,-4.0,-1,2,-3.2
CCc1ccccc1Oc1nc2cc(-c3cccc(OC)c3)sc2c(=O)n1C,·,·,i,2.4,·,-10,·,·,·
O=C(c1ccco1)N1CCN(c2ncnc3c2cnn3-c2ccccc2)CC1,1%,-3,·,-2.4,0.7,·,·,·,·
CCN1CCN(Cc2ccc(NC(=O)CC3Oc4ccc(C)cc4NC3=O)cc2)CC1 (stereo not drawn),6%,-6,i,-2.2,0.69,3.3,6,10,1.0
CO[C@H]1CN(C)C(=O)c2cc(NC(=O)NC(C)C)ccc2OC[C@@H](C)N(Cc2ccccc2)C[C@H]1C,·,·,i,·,·,-0.9,0,5,0.1
NS(=O)(=O)c1ccc(NCc2cnc3ccccc3c2)cc1,-4%,·,i,4.6,·,-1.9,0,-5,-1.8
Cn1c(SCC(=O)NC2CC2)nnc1-c1cccs1,·,0,i,-11,0.66,-1.7,6,18,2.3
CC(C)OCCCNC(=O)Cn1ncc2c(=O)oc3ccccc3c21,18%,2,·,0.1,0.71,·,·,·,·

Molecule,Vif A3G,ALR inh,FGF22 binding,HNF4A DNA FP,Ecoli growth,AF4-AF9 inh,rRNA inh HTS,rRNA inh HTS OD600,rRNA inh HTS RFP
CCn1c(=O)cc(SCC(=O)N2CCN(Cc3ccc4c(c3)OCO4)CC2)c2ccccc21,12%,-4,·,1.1,0.66,·,·,·,·
COc1ccc(NC(=O)N(C)C[C@@H]2Oc3c(NC(=O)C4CCCCC4)cccc3C(=O)N([C@H](C)CO)C[C@H]2C)cc1,·,·,i,·,·,0.4,4,12,-1.9
Cc1c(CC(=O)NCC(=O)NCC(=O)N[C@@H](Cc2ccccc2)C(=O)O)c(=O)oc2c(C)c(O)ccc12,·,·,i,1.6,·,-3.9,·,·,·
CC(C)c1ccc(CC(=O)N2CCC2(C)C(=O)Nc2cnc3ccccc3c2)cc1 (stereo not drawn),·,·,i,3.5,·,-2.2,-48,-74,-6.0
O=C(CNC(=O)c1ccc(Br)o1)NCCc1ccc(F)cc1,-7%,-1,i,-3.0,0.73,-2.8,7,10,0.7
COc1ccc(C#Cc2cnc3c(c2)C(=O)N([C@@H](C)CO)C[C@@H](C)[C@H](CN(C)C(=O)CC2CC2)O3)cc1,·,·,i,·,·,-0.7,-4,-11,1.8
CCOC(=O)c1c(C)[nH]c(C)c1S(=O)(=O)N1CCOCC1,·,-4,i,0.4,0.71,0.7,0,4,0.9
CCOc1cc(C(=S)N2CCOCC2)ccc1OC(=O)c1ccccc1,·,-13,i,3.3,0.71,3.4,-9,-9,0.1
O=C1NC[C@H](CCCCN2C[C@H](Cc3ccc(O)cc3)N(CCc3ccccc3)C(=O)C2=O)N(CC2CCCCC2)C1=O,·,·,i,1.9,·,-22,-27*,-22*,7.7*
CCOC(=O)c1ccc(NC(=O)CC2SC3=NCCN3C2=O)cc1 (stereo not drawn),·,-1,i,3.4,0.65,-2.4,19,10,2.4
O=C(O)c1cc(/C=C/C(=O)c2cc(F)ccc2O)c2c(c1)COCO2,·,54,i,-9.7,0.65,5.8,-4,-4,7.8
CCC(=O)OCCNc1cc(SCCC(=O)OC)c2nonc2c1[N+](=O)[O-],20%,3,·,2.4,0.68,·,·,·,·
C[C@H]1CN([C@@H](C)CO)C(=O)c2cc(NS(=O)(=O)c3ccc(F)cc3)ccc2O[C@@H]1CN(C)Cc1ccccc1,·,·,i,·,·,0.4,0,0,0.5
O=C(NCCCn1ccnc1)c1ccc2c(c1)OCCO2,5%,-15,·,5.0,0.71,·,·,·,·
O=C(C[C@H]1CC[C@H](NS(=O)(=O)c2cccc(F)c2)[C@@H](CO)O1)N1CCCCC1,·,·,i,·,·,-2.0,1,3,-0.5
Fc1cc(Cl)c(OCc2noc(-c3ccsc3)n2)c(Cl)c1,-2%,-1,i,-0.5,0.67,-1.5,15,7,0.0
Cc1nc2nc(-c3cccs3)cn2nc1C,18%,-19,·,-6.1,0.63,·,·,·,·
O=C(Nc1ccc2nc(-c3ccccc3)[nH]c2c1)c1cccs1,84%,7,i,14,0.65,4.6,-32*,18*,1.2*
Cc1ccc(Nc2nc3nonc3[nH]c2=O)cc1C,11%,16,·,6.3,0.72,·,·,·,·
C[C@@H]1CN([C@@H](C)CO)C(=O)c2cc(NC(=O)CCC(F)(F)F)ccc2O[C@@H]1CN(C)Cc1ccc2c(c1)OCO2,·,·,i,·,·,-0.5,3,1,1.3
Cc1onc(-c2ccccc2Cl)c1C(=O)Nc1ccccc1C(N)=O,21%,-10,·,-0.4,0.7,·,·,·,·
NC(=O)COC(=O)c1ccc2c(c1)C(=O)N(Cc1ccco1)C2=O,·,1,i,1.5,0.69,-10,-3,5,-1.3
N#C[C@H]1[C@H](c2ccccc2-c2ccccc2F)[C@H](CO)N1C(=O)C1CCOCC1,·,·,i,·,·,0.6,4,14,-2.0
CCOc1cc(NC(=O)CCl)c(OCC)cc1NC(=O)CCl,13%,-7,i,2.4,0.7,0.8,4,10,18
CN(C)S(=O)(=O)c1cccc(NC(=O)CSc2ncnc3ccccc23)c1,22%,99*,·,-2.8,0.67,1.0,-4,-8,-4.8
CCCCC(=O)NNC(=S)NC(=O)c1ccc(C)cc1,·,99*,i,-5.5,0.61,-2.3,-48,-76,-14
COc1ccccc1C(=O)C1CCCN(C(=O)c2ccccn2)C1 (stereo not drawn),-12%,-1,i,3.6,0.67,-1.5,1,1,2.8
CCOC(=O)NC(=S)c1ccc[nH]1,3%,·,·,-1.4,0.66,-1.0,5,3,1.0
COc1cc(NC(=O)CN2CC(c3ccccc3)CC2=O)cc(OC)c1 (stereo not drawn),15%,-5,i,1.6,0.78,-0.8,6,8,1.1
O=C(Nc1cccc(Cl)c1)Nc1ccc2c(c1)C(=O)OC2,·,2,i,2.9,0.66,-4.5,15,32,3.4
Nc1nccc(/C=C/c2c(F)cccc2Cl)n1,3%,-2,i,4.2,0.62,1.6,-3,5,-0.7

Marked active in ALR inh, among the entries above:
Molecule,Vif A3G,ALR inh,FGF22 binding,HNF4A DNA FP,Ecoli growth,AF4-AF9 inh,rRNA inh HTS,rRNA inh HTS OD600,rRNA inh HTS RFP
CN(C)S(=O)(=O)c1cccc(NC(=O)CSc2ncnc3ccccc23)c1,22%,99*,·,-2.8,0.67,1.0,-4,-8,-4.8
CCCCC(=O)NNC(=S)NC(=O)c1ccc(C)cc1,·,99*,i,-5.5,0.61,-2.3,-48,-76,-14

High-throughput results as filed in PubChem.
